Compound activity as filed in PubChem.
FGF22 binding: binders of human FGF22 protein, primary screen, FGF22 synaptogenesis inhibitor project, biophysical, thermal shift, single point; Fibroblast growth factor 22 (Homo sapiens), Q9HCT0; AID 651658, 2012; recombinant FGF22 thermal shift, SYPRO orange fluorescence; percent of sucrose octasulfate shift, DMSO zero; 1.5% of 340,000 active; calls only at 9.99 µM;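 active means melting point raised past a set limit in the mean and every replicate; inconclusive means no clear call; three in four hits are not shown here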
Target sequence (Q9HCT0 whole entry, looked up): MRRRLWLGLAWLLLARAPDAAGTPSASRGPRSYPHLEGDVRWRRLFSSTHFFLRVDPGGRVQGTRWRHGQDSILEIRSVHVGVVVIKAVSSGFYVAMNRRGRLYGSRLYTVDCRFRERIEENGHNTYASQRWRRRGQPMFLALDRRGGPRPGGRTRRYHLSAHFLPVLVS
Ecoli rRNA inh: reduced GFP signal of wild-type E. coli, primary screen, bacterial rRNA inhibitor project, GFP/RFP fluorescence, OD600, single point; E. coli WT GFP vs humanized-ribosome RFP mutants, 24 h; active compounds read low; DMSO median 0, no signal -100; GFP signal change (wild-type ribosome), % (no concentration beside the values); 1.6% of 350,000 active; AID 720706, 2013;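 active means significant combined selectivity score with lowered wild-type GFP, culture density cut under 30%, mutant RFP and density less affected; inactive means any of these conditions unmet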; further: one replicate is shown; some compounds called inactive have numbers as strong as hits
ALR inh: inhibitors of human ALR sulfhydryl oxidase, primary screen, biochemical, H2O2 detection, HRP-luminol luminescence, single point. FAD-linked sulfhydryl oxidase ALR (Homo sapiens), P55789. purified ALR, DTT oxidation. inhibition, % (test concentration not listed). 3.8% of 290,000 active;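 active means mean and each replicate at 75% or more; inconclusive means only one of the two met; inactive means neither met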;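 further: stock transfer was 7.5 nL into about 7.5 µL; 0% = neutral wells and 100% = wells with inactivated enzyme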
Target sequence (P55789 whole entry, looked up): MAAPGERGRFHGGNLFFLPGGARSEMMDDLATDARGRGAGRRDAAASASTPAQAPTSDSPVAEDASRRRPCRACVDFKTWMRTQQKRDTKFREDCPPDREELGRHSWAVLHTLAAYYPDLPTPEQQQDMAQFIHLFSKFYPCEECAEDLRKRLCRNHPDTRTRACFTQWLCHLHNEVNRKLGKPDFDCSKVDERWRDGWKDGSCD
AF4-AF9 inh: inhibitors of AF4 peptide binding to AF9, primary screen, biochemical, AlphaScreen, biotin-AF4 peptide, FLAG-AF9, single point; AID 651704, 2012; inhibition, % at 10 µM; 0.47% of 350,000 active;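 active means every replicate reaching a set inhibition limit, whatever the replicate mean, cut at about 25% in these data; inconclusive means mean inhibition reaches that limit but some replicates miss it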;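 further: 0% = plate neutral control median and 100% = total signal loss; the record names both 10 and 1 µM as test concentration; the first replicate is given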
Target sequence (P42568 whole entry, looked up): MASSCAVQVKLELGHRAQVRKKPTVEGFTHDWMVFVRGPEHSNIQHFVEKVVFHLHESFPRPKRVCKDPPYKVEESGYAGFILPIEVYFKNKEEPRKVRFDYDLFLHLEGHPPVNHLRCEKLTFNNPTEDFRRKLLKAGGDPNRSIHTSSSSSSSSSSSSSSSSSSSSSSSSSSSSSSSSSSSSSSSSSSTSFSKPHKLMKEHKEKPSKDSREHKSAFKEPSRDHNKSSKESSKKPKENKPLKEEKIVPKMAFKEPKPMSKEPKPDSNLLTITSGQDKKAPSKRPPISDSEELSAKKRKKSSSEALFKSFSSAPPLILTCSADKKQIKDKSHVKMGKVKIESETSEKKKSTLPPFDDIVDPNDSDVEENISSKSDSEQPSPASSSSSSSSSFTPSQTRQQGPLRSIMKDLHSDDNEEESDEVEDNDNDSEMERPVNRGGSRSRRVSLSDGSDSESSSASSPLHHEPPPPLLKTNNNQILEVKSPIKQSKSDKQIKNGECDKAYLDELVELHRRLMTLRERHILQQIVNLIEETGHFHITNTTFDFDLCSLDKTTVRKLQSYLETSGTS
Beta apoptosis: inhibitors of cytokine-induced beta cell apoptosis, primary screen, luminescence; protection from apoptosis, % (test concentration not listed); AID 435005, 2010; INS-1E cytokine-induced death, ATP luminescence, 48 h; percent of positive-control rescue, neutral wells zero; 0.8% of 300,000 active;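 active means all replicates at 75% or more, or half of them and the mean; inconclusive means half reach 75% but not the mean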;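 further: 0% = cytokine-treated negative control wells and 100% = positive control rescue; higher means more ATP so stronger rescue from cytokine killing; wells of about 40 µL received 100 nL stock; the first replicate is given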
Calb FLC: C. albicans growth inhibition with fluconazole, primary screen, CaCi-2 strain, Alamar Blue fluorescence; C. albicans CaCi-2 (fluconazole-resistant clinical isolate) + fluconazole, 48 h; growth inhibition, % (no concentration beside the values); 0.57% of 300,000 active; AID 1979, 2009;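 active means most replicates above 75%; inconclusive means exactly half above 75%; inactive means most below 75%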;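 further: all wells also contain fluconazole at 8 µg/ml as a sub-toxic cotreatment; 0% = median of DMSO wells and 100% = median of geldanamycin control wells; wells of about 8 µL received 7.5 nL stock; the first replicate is given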
RanGTP-Imp inh: inhibitors of RanGTP-importin-beta interaction, primary screen, biochemical, FRET, CFP-Ran, YFP-importin-beta, homogeneous. Ran GTPase (GTP-bound) - importin-beta complex. cell-free CFP-Ran/YFP-importin-beta FRET ratio. inhibition, % (no concentration beside the values). 1.1% of 300,000 active. AID 2216, 2009;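 active means most replicates above 15%; inconclusive means exactly half above 15%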;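 further: 0% = DMSO wells and 100% = Ran loaded with GDP instead of GTP; wells of about 40 µL received 100 nL stock; the first replicate is given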
T cruzi repl: inhibitors of intracellular T. cruzi growth, primary screen, luminescence, NIH3T3 host cells; T. cruzi beta-gal in NIH3T3, 90 h; inhibition, % (test concentration not listed); 1.4% of 300,000 active;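 active means mean inhibition across valid replicates above about 55%, limit read from the data; inconclusive means mean below that limit but half or more replicates reach it; inactive means mean below it, under half of replicates reach it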;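 further: signal also drops with host cell toxicity which is not excluded here; 0% = plate median of DMSO wells and 100% = zero luminescence signal; higher percent means less beta-gal luminescence so fewer parasites; stock transfer was 50 nL into about 50 µL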
Ecoli rRNA inh OD600: further read-out of Ecoli rRNA inh, marked with its call; OD600 change, %; measured here: OD600 growth;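 optical density of the mix in the first replicate; 0 = DMSO median and -100 = no signal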
Ecoli rRNA inh RFP: recorded beside Ecoli rRNA inh, whose call it bears; RFP signal change, %; measured here: RFP humanized mutant strains;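 first replicate; 0 = DMSO median and -100 = no signal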
* hit, by the source's call; i = inactive; ? = inconclusive; . = not tested or not shown; & = joins results of further samples. Not all compounds are listed; the hit share may differ from the screen's.

SMILES | FGF22 binding | Ecoli rRNA inh | Ecoli rRNA inh OD600 | Ecoli rRNA inh RFP | ALR inh | AF4-AF9 inh | Beta apoptosis | Calb FLC | RanGTP-Imp inh | T cruzi repl
O=C1c2ccccc2-c2n[nH]c(=O)c3ccc(N4CCCCC4)c1c23 | i | 10.4 | 5.7 | -1.2 | -0.3 | 1.1 | 0.5 | 38.6 | ? | -13.1
N#C/C(=C/c1ccncc1)c1nc2ccccc2c(=O)[nH]1 | i | -0.5 | 1.6 | -4.3 | 19.8 | 3.1 | -3.9 | 5.1 | 6.1 | 1.1
COc1ccc(F)c(CN2CCC(CO)(Cc3cccc(C(F)(F)F)c3)CC2)c1 | i | -5.8 | -5.7 | 2.2 | -0.1 | 4.3 | 4.5 | 2.4 | 6.5 | 19.0
CCn1c(SCC(=O)N/N=C/c2c[nH]c3ccccc23)nnc1-c1ccc(Cl)cc1 | i | -35.2 | -29.8 | 14.2 | 1.1 | 1.7 | . | -6.3 | -0.3 | 0.4
COc1ccc(N2CC(C(=O)Nc3cccc(C)n3)CC2=O)cc1 (stereo not given) | i | 3.5 | 14.2 | -0.6 | 1.5 | -2.1 | -2.3 | 5.5 | -0.1 | -4.2
Cc1cc(Cl)ccc1OCCCC(=O)NO | . | . | . | . | 99.1* | . | -5.3 | 22.1 | 3.3 | 24.4
CCC(Sc1nc(C)cc(C)n1)C(=O)Nc1nccs1 (stereo not given) | i | 1.1 | 1.3 | -2.3 | -2.0 | -4.4 | -3.8 | 2.2 | 2.8 | -9.3
COc1ccc(NC(=O)CN2C(=O)NC(C)(c3ccc4c(c3)OCCO4)C2=O)cc1S(N)(=O)=O (stereo not given) | i | 14.5 | 12.3 | 4.0 | -0.3 | 9.2 | -1.2 | . | . | .
Cc1cc(Br)c(S(=O)(=O)NCc2ccncc2)cc1C | i | -0.1 | -0.8 | -4.5 | -0.8 | -2.0 | 45.5 | 3.2 | 1.5 | -21.6
Cc1noc(C)c1COc1ccccc1C(=O)NC(C)c1ccc(Cl)cc1 (stereo not given) | i | -12.8 | -18.0 | 0.0 | -3.1 | -0.9 | -2.1 | . | . | .
CCOc1ccc(CN(C)CC(=O)Nc2cccc(C)c2)cc1OC | i | 3.5 | 6.3 | 4.8 | -0.5 | -3.5 | 1.6 | -9.2 | -3.1 | 15.2
Cc1cc(NS(=O)(=O)c2ccc(NC(=O)C(C)Oc3ccc(Cl)cc3)cc2)no1 (stereo not given) | . | . | . | . | 4.9 | . | -9.6 | 3.2 | -4.1 | -9.7
Cc1ccc(NC(=O)Cn2c(=O)oc3ccccc32)c(C)c1 | i | 7.9 | 20.8 | -6.7 | 8.1 | -2.0 | 3.5 | -7.6 | 1.5 | -22.1
Fc1ccccc1/C=N/Nc1ccc(Cl)nn1 | i | 2.2 | 10.6 | 0.1 | . | -1.8 | 1.4 | -1.1 | -1.4 | -2.2
CC(C)Cc1nnc(NC(=O)C2CCN(C(=O)c3ccc(Cl)cc3)CC2)s1 | i | 7.3 | 10.0 | 4.2 | -1.7 | 1.9 | -0.1 | 5.7 | -0.4 | 15.0
Cc1ccccc1SCC(=O)N1CCN(c2ccc(C(F)(F)F)cn2)CC1 | i | -24.2 | -69.9 | -2.6 | -5.2 | -0.6 | 3.6 | -7.3 | 3.7 | 19.1
C/C(=N\NC(=O)c1cc2ccccc2cc1O)c1ccccn1 | i | 3.6 | 11.2 | -0.8 | 12.3 | -4.8 | 98.7* | 99.9* | -4.5 | 12.2
CN(C)c1nc(Oc2ccc(=O)[nH]n2)nc(N2CCCCC2)n1 | . | . | . | . | 67.1 | . | -5.5 | 4.8 | 1.9 | -11.7
Cc1ccc(S(=O)(=O)N(Cc2cc3ccccc3[nH]c2=O)CC2CCCO2)cc1 (stereo not given) | i | -8.4 | -17.2 | 5.1 | 0.9 | 2.3 | -2.6 | 1.0 | -0.9 | 8.6
Cc1c(N2C(=O)c3ccc(Br)cc3C2=O)c(=O)n(-c2ccccc2)n1C | . | . | . | . | -0.3 | . | . | 14.3 | 1.4 | 0.4
O=C(c1ccc(Cl)cc1)c1ccc(Oc2cc(NN3CCCCC3)c([N+](=O)[O-])cc2[N+](=O)[O-])cc1 | i | 1.4 | 7.6 | 8.8 | 4.1 | 3.5 | 2.7 | -4.0 | -5.7 | -10.1
Cc1ccc(C)c(OCC(=O)O/N=C(\N)c2cccc([N+](=O)[O-])c2)c1 | i | 9.7 | 16.2 | 1.5 | -4.6 | -3.5 | . | 5.5 | 4.7 | 31.0
CSc1ncc(Sc2ccccc2)c(C(=O)O)n1 | i | . | . | . | . | -0.2 | -2.2 | -4.9 | -2.0 | 16.1
COC(=O)CC(NC(=O)c1ccc(C)cc1)c1ccccc1 (stereo not given) | . | 4.6 | 6.1 | 1.2 | -2.8 | . | -7.8 | -5.2 | -0.3 | -0.5
COc1ccc(NC(=O)N(C)C[C@H]2Oc3ccc(NC(=O)C4CC4)cc3C(=O)N([C@H](C)CO)C[C@@H]2C)cc1 | i | 1.3&11.2 | 9.3&11.9 | -0.6&-0.3 | -0.4 | -0.6&-6.4 | -3.3 | . | . | .
COC(=O)c1ccccc1NC(=O)c1ccc2c(c1)CC(C)O2 (stereo not given) | i | -29.1* | -14.4* | -7.5* | 8.5 | -5.5 | -1.6 | 1.5 | 0.5 | -1.4
Cn1cc([N+](=O)[O-])c(C(=O)Nc2nccs2)n1 | i | 13.6 | 11.8 | 8.8 | -51.5 | 0.9 | 0.6 | 25.6 | 2.9 | -30.7
Cc1c(CC(=O)O)c(=O)oc2c(C)c(OCc3c(F)cccc3Cl)ccc12 | i | -46.6 | -71.9 | -21.6 | 12.1 | -7.5 | -8.8 | 11.4 | 3.6 | -4.1
CCCCOc1ccc(C(=O)OCC(=O)N2CCOCC2)cc1 | i | -6.7 | 2.3 | -0.8 | -1.4 | -2.9 | -3.5 | -6.6 | -1.1 | 0.0
COC(=O)N/N=C/c1cn(Cc2ccc(F)cc2)c2ccccc12 | i | -11.1 | 0.2 | 0.0 | -1.5 | 0.2 | -5.9 | -10.2 | -2.3 | 7.9

Fetched one by one from the entries so far:
SMILES | FGF22 binding | Ecoli rRNA inh | Ecoli rRNA inh OD600 | Ecoli rRNA inh RFP | ALR inh | AF4-AF9 inh | Beta apoptosis | Calb FLC | RanGTP-Imp inh | T cruzi repl
COC(=O)CC(NC(=O)c1ccc(C)cc1)c1ccccc1 (stereo not given) | . | 4.6 | 6.1 | 1.2 | -2.8 | . | -7.8 | -5.2 | -0.3 | -0.5
COC(=O)c1ccccc1NC(=O)c1ccc2c(c1)CC(C)O2 (stereo not given) | i | -29.1* | -14.4* | -7.5* | 8.5 | -5.5 | -1.6 | 1.5 | 0.5 | -1.4

(further entries)
SMILES | FGF22 binding | Ecoli rRNA inh | Ecoli rRNA inh OD600 | Ecoli rRNA inh RFP | ALR inh | AF4-AF9 inh | Beta apoptosis | Calb FLC | RanGTP-Imp inh | T cruzi repl
CCC(CC)COC(=O)C1=C(C)NC(=O)NC1c1cccc([N+](=O)[O-])c1 (stereo not given) | i | -7.3 | -5.5 | -3.0 | -1.6 | 2.3 | -2.0 | 10.8 | -1.7 | -10.4
COC(=O)C1=C(C)C(c2cccs2)NC(=O)N1C (stereo not given) | . | . | . | . | -3.4 | . | 6.9 | -13.7 | -5.9 | -10.3
Cc1ccc(S(=O)(=O)NCCN2CCOCC2)cc1C | i | 2.4 | 7.2 | -5.6 | -3.4 | 2.6 | . | -8.8 | 1.9 | 1.5
CC1CCCCC1NC(=O)CSc1nnc(COc2ccc(Cl)cc2)o1 (stereo not given) | i | . | . | . | -2.8 | 1.8 | -11.4 | -10.3 | -2.0 | -3.9
Cc1ccc(C2SCC(=O)N2Cc2cn3ccsc3n2)o1 (stereo not given) | . | . | . | . | -8.4 | . | . | -3.5 | -3.5 | 1.5
COC(=O)CCC/C=C1/SCC(NC(=O)c2ccccc2)C1=O (stereo not given) | . | . | . | . | 10.1 | . | -3.7 | -2.3 | 0.6 | -17.3
CCOC(=O)c1cc(=O)n(Cc2ccccc2C)c2ccccc12 | i | -32.6 | -37.0 | -14.9 | 3.6 | 4.7 | 0.4 | -5.6 | 8.5 | -4.5
C=CCn1c(SCC(=O)c2[nH]c(C)c(C(=O)OCC)c2C)nc2scc(-c3ccc(OC)cc3)c2c1=O | i | . | . | . | . | -5.5 | . | -3.5 | -0.3 | 12.0
COc1ccc(OC)c(S(=O)(=O)N2CCC(C(=O)NCc3cccnc3)CC2)c1 | i | 5.7 | 1.4 | -1.1 | 0.7 | -1.0 | -6.2 | 0.8 | 4.6 | -0.1
COc1ccc(Nc2cc(C)c3ccc(O)cc3n2)cc1 | i | -19.9 | -17.3 | 13.5 | 98.7* | 13.3 | -8.5 | -6.0 | 6.8 | 13.2
Oc1ccc(Br)cc1-c1cc(-c2ccco2)[nH]n1 | . | . | . | . | 92.1* | . | 3.5 | 0.3 | 0.6 | -4.5
Nc1nc(-c2ccco2)cs1 | . | . | . | . | -106.8 | . | -10.2 | -1.0 | 1.5 | -10.8
COc1ccc(C2C(C#N)=C(C)NC3=C2C(=O)CC(C)(C)C3)cc1 (stereo not given) | . | . | . | . | 1.9 | . | -3.8 | -8.3 | -2.0 | 3.1
O=C(NC(=S)Nc1ccc(Cl)cc1)c1ccccc1 | i | 4.5 | 5.0 | -1.4 | -0.5 | 6.9 | -9.6 | -18.4 | -3.2 | -3.1
CCCCn1c(N)c(N(CCOC)C(=O)c2cc(-c3ccccc3Cl)nc3ccccc23)c(=O)[nH]c1=O | i | 0.6 | -2.8 | -1.6 | . | 1.2 | 0.7 | 15.5 | 1.4 | -0.5
COC(=O)NC1(C(F)(F)F)C(=O)NC(C)=C1C(=O)OC (stereo not given) | . | . | . | . | 4.2 | . | -2.4 | 7.1 | 1.9 | -8.0
COc1ccc(-c2nn(C)c(=O)c3ccccc23)cc1CNC(=O)c1ccco1 | . | . | . | . | 1.0 | . | -0.8 | 2.3 | 4.7 | 4.1
O=S1(=O)NC(c2ccccc2)CC(CC2CCCCC2)O1 (stereo not given) | i | -24.1 | -50.0 | 1.7 | 3.9 | -3.1 | -4.3 | -2.9 | 1.6 | 12.0
COC(=O)c1nn(-c2nc(-c3ccc(OC)c(OC)c3)cc(C(F)(F)F)n2)cc1[N+](=O)[O-] | i | 8.0 | 0.4 | -2.3 | . | -7.8 | 4.6 | 6.0 | 2.1 | 25.0
CCOC(=O)C(=CNc1cccnc1Oc1ccc(C)c2c1CCC2)C(=O)OCC | i | 11.9 | 13.8 | 0.1 | -3.1 | 0.8 | 5.7 | -5.1 | -0.5 | 26.6
CC1CC(NC(=O)CCn2c(=O)oc3ccccc32)CC(C)(C)C1 (stereo not given) | i | -10.8 | -37.5 | -7.7 | -3.4 | -13.1 | 7.4 | . | . | .
